VDR inh: inhibitors of human vitamin D receptor | P11473 | VDR-SRC2-3 peptide fluorescence polarization, 2 h | Potency, µM, without a hit: max response, negative = inhibition, usual class: inhibitors | 400,000 compounds, 0.93% hits | AID 504847; active means well fitted inhibition curve with a large enough effect; inconclusive means small, poorly fitted or top-dose-only effect, or another doubt; inactive means no such curve, though single readings can be large or run the other way; further: series mostly up to about 120 µM
Target sequence (P11473 whole entry, looked up): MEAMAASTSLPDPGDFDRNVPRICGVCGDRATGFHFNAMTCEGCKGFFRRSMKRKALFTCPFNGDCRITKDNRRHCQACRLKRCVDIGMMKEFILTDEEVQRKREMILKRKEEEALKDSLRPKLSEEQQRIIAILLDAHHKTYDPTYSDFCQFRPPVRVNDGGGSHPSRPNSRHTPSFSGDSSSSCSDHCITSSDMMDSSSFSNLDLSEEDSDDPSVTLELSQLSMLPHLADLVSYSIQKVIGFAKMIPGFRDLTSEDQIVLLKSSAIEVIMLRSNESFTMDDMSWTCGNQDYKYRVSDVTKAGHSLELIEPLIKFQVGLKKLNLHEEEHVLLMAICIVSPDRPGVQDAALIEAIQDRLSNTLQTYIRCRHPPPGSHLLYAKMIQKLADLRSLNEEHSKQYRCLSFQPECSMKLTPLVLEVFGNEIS
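VDR–SRC2-3 interaction, FP format. Cmpds 23 nl via pintool, brief spin, 2 h ambient incubation.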
* = called active by the depositor; ? = inconclusive; & = joins results of further samples; [ ] = dose if it differs, or a comment. On the % scale 0 is the no-effect control and ±100 the full control effect; potency means the concentration at half of the fitted maximal effect. Not all compounds are listed; the hit share may differ from the screen's.

VDR inh	SMILES
12%	Cc1ccccc1CNC(=O)Cn1cc2c(n1)-c1c(oc(C(=O)N3CCCC3)c1C)CC2
5%	Cc1cc2ccccn2c1C(=O)c1ccc(C#N)cc1
12%	Cc1ccc(C2CC(C(F)(F)F)n3ncc(C(N)=O)c3N2)cc1 (stereo not given)
-10%	COc1ccc(COC(=O)C2=C(C)NC(=O)NC2c2cc(OC)ccc2OC)cc1 (stereo not given)
-14%	c1csc(CCCN2CCCCC2)c1
4%	Cc1ccn2cc(C(=O)Nc3nnc(C)s3)nc2c1
-14%	C=CCONC(=O)c1cc(OCC(F)(F)F)ccc1OCC(F)(F)F
-22%	O=C(C[n+]1ccccc1)N/N=C/c1ccc(F)cc1
-2%	CCCCCc1nnc(NC(=O)c2ccc(=O)n(C)n2)s1
-13%	COc1cc2cnc(-c3cccnc3)cc2cc1OC
4%	COc1ccccc1-c1nnc2n1N=C(c1ccc(O)c(O)c1)CS2
1%	COc1ccc(CCN2CCC[C@H](CN3CCc4cc(OC)c(OC)cc4CC3=O)C2)cc1OC
9%	Cc1ccc(NC(=O)CN2C(=O)C3CCCCN3C(=O)c3ccccc32)cc1 (stereo not given)
-3%	COc1ccc(N(CC(=O)NCCSC2CCCCC2)S(=O)(=O)c2ccc(C)cc2)cc1
-1%	Cn1c(=O)c2c(ncn2CC(=O)N2CCN(S(=O)(=O)c3ccc(Cl)cc3)CC2)n(C)c1=O
2%	O=C(NCCc1ccccc1)c1ccc2c(c1)CCN2S(=O)(=O)c1ccc(Cl)cc1
-20%	O=C(COC(=O)c1ccccc1Br)NCC1CCCCC1
-23%	C=CCOC(=O)c1[nH]c2c(c1C)C(=O)CC(c1cc(OC)c(OC)c(OC)c1)C2 (stereo not given)
5%	CCCc1cnc(N2CCN(C(=O)c3ccc(F)cc3)CC2)nc1
13%	COc1cc(O)c(C(C)=O)c2c1C=CC(C)(C)O2

The list goes on, overlapping the part above by 2 compounds.
VDR inh	SMILES
5%	CCCc1cnc(N2CCN(C(=O)c3ccc(F)cc3)CC2)nc1
13%	COc1cc(O)c(C(C)=O)c2c1C=CC(C)(C)O2
5%	CCc1cccc2c(N=O)c(O)[nH]c12
12%	CC1CCc2c(cc(-c3ccccc3)n2-c2ccc(C(=O)NC(C)C)cc2)C1 (stereo not given)
39%[activator]	C=CCOc1ccc(CN(C)CC(O)COc2cccc3ccccc23)cc1 (stereo not given)
-10%	Cc1ccccc1NC(=O)Cc1nc(COC(=O)COc2ccc(C(C)(C)C)cc2)cs1
-5%	COc1ccc(S(=O)(=O)Nc2cc(C(=O)NC(C)C)ccc2N2CCOCC2)cc1
-14%	Cc1ccc(S(=O)(=O)c2cc3c(=O)n4cccc(C)c4nc3n(CC3CCCO3)c2=N)cc1C (stereo not given)
-14%	COc1ccccc1S(=O)(=O)Cc1ccc(C(=O)NCc2ccco2)o1
11%	COc1ccc(CNC(=O)CCn2cccn2)cc1
-7%	CC(C)[C@H](NC(=O)[C@H](CCC(N)=O)NC(=O)CNC(=O)[C@@H]1CCCN1C(=O)[C@H](Cc1ccc(O)cc1)NC(=O)CN)C(=O)O
-16%	C/C(=N\Nc1cc(C(F)(F)F)ccc1Cl)c1ccncc1
-3%	Cc1ccc(-c2noc(-c3cc4ccccc4oc3=O)n2)cc1
14%	Cn1c(=O)n(CC(=O)NCC2CCCO2)c(=O)c2c3c(sc21)COC(C)(C)C3 (stereo not given)
21%	CCOC(=O)N1CCN(c2c(NCC3CCCO3)c(=O)c2=O)CC1 (stereo not given)
9%	COc1ccc(-c2nnc(N(C)C(=O)c3ccno3)s2)cc1
?	CC(OC(=O)CCCN=C1NS(=O)(=O)c2ccccc21)C(=O)Nc1ccc(F)cc1Cl (stereo not given)
11%	COc1ccc(NC(=O)CN(c2ccc(OC)cc2)S(=O)(=O)c2ccc(OC)c(OC)c2)cc1
-7%	O=C(N/N=C\C=C\c1ccc2c(c1)OCO2)C1COc2cc3ccccc3cc2O1 (stereo not given)
-5%	Cc1ccc(Cl)cc1N1CCN(C(=S)NCc2ccco2)CC1
10%&-13%	C=C1CCN(C(CC(C)C)C(=O)OC)S(=O)(=O)c2ccccc21 (stereo not given)
3%	O=C(Cc1ccccc1)N/N=C\c1ccc(Br)o1

VDR inh	SMILES
-15%	Cc1cc(NC(=O)C23CC4CC(C2)CC(n2cnc([N+](=O)[O-])n2)(C4)C3)no1
-10%	CCOC(=O)c1cc(C(=O)OCC)cc(-n2c(C)cc(C(=O)CN3CCOCC3)c2C)c1
5%	COc1ccc(CN(Cc2cc3cccc(C)c3[nH]c2=O)C(=O)N(C)C)cc1
6%	Cc1ccc(NC(=O)/C(=C\c2ccccc2)NC(=O)/C=C/c2ccccc2)cc1
-3%	O=C(NCCCN1CCOCC1)c1cc2c(=O)[nH]c3ccccc3c2s1
-21%	Cc1nc2c(-c3ccc(F)cc3)c(C)nn2c(C)c1CCC(=O)Nc1ccc(F)cc1F
2%	Cc1ccc(-c2nc(C)sc2CC(=O)Nc2cccc(C)c2C)cc1
-2%	COc1ccc(OC)c(N(CC(=O)Nc2cccnc2)S(=O)(=O)c2ccc(OC)c(OC)c2)c1
-24%	COC(=O)Cn1c2ccc(C)cc2c2nc3ccccc3nc21
6%	Cc1ccc(S(=O)(=O)N2CCN(C(=O)C(C)Cn3nc(C)c(C)c3C)CC2)cc1C (stereo not given)
19%	Cc1ccc(C(=O)Nc2cccc(C(=O)N/N=C/c3ccccc3F)c2)cc1
?	CC(=O)Nc1ccccc1NC(=O)c1cccc2ccccc12
-5%	Cc1cc2nc3c(c(C(F)(F)F)n2n1)CCCC3
-7%	O=C(COc1ccc(Cl)cc1Cl)Nc1ccc(-c2ccc(N3CCOCC3)nn2)cc1
-1%	O=S(=O)(Nc1ncccn1)c1ccc(NS(=O)(=O)c2cccc(Cl)c2Cl)cc1
6%	O=C(/C=C/c1c(Cl)cccc1Cl)NCCCn1ccnc1
2%	CCn1c2ccccc2c2nnc(NN)nc21
-9%	CC(=O)c1cccc(NS(=O)(=O)c2ccc3c(c2)NC(=O)CC(=O)N3)c1
15%	O=C(CN(Cc1cccs1)C(=O)CCC(=O)Nc1ccccn1)NCc1ccccc1
-9%	O=C(O)C1=C[C@H](c2ccc3c(c2)OCO3)C[C@H](OCCCCO)O1

Sorted by length of the SMILES (rising): some entries from above.
VDR inh	SMILES
-3%	O=C(NCCCN1CCOCC1)c1cc2c(=O)[nH]c3ccccc3c2s1
12%	CC1CCc2c(cc(-c3ccccc3)n2-c2ccc(C(=O)NC(C)C)cc2)C1 (stereo not given)
14%	Cn1c(=O)n(CC(=O)NCC2CCCO2)c(=O)c2c3c(sc21)COC(C)(C)C3 (stereo not given)
?	CC(OC(=O)CCCN=C1NS(=O)(=O)c2ccccc21)C(=O)Nc1ccc(F)cc1Cl (stereo not given)

New compounds follow
VDR inh	SMILES
9%	CCC/C(=N\NC(=O)C1CC1)c1ccccc1
6%	COc1ccc(NC(=O)N2CC[C@@]3(CCCN(C(=O)c4csnn4)C3)C2)cc1
3%	Nc1nnc(SCC(=O)N2CCc3ccccc32)n1-c1ccccc1
23%	O=C(COC(=O)Cc1c(Cl)cccc1Cl)Nc1ccc(OC(F)(F)F)cc1
-15%	Cn1nnnc1Sc1ncnc2scc(-c3cccc(S(C)(=O)=O)c3)c12
-6%	CCCN1CCC(=O)N([C@H](CSc2ccccc2)Cc2ccccc2)CC1
2%	O=C(C=Cc1ccc2c(c1)OCO2)OCC=Cc1ccc2c(c1)OCO2
-14%	Cc1ccc(C(=O)N(c2c(C)n(C)n(-c3ccccc3)c2=O)C(C)C)cc1
4%	Cc1ccc(/C=C/S(=O)(=O)N2CCC(C(=O)O)CC2)cc1
-10%	CCCC#Cc1ccc2c(c1)COc1c3ccccc3nn1-2
3%	O=C(CSc1nnnn1C1CCCCC1)N1c2ccccc2Sc2ccccc21
3%	Cc1ccccc1C(=O)Nc1cccc(C(=O)OCc2cc(=O)n3c4c(sc3n2)CCCC4)c1
-22%	O=C(Oc1ccccc1)c1ccc(NC(=O)c2ccco2)cc1
-6%	CCN(CC)C(=O)c1[nH]cnc1C(=O)N[C@@H](C)C(=O)OC(C)(C)C
-2%	C#CC(C)OC(=O)Nc1cccc(Cl)c1 (stereo not given)
-1%	O=C(c1ccc(S(=O)(=O)N2CCCCC2)cc1)N1CCCc2ccccc21
-11%	NC(=O)c1ccccc1NC(=O)CSc1cn[nH]n1
-16%	CCN(CC)S(=O)(=O)c1cc(C(=O)N(C)CC(=O)Nc2ccc(Cl)cc2)ccc1Cl
9%	COCCCNC(=S)N1CCN(C(c2ccccc2)c2ccccc2)CC1
-6%	COc1ccc(C2/C=C\CN(CC3CC3)C(Cc3ccccc3)C(=O)N2Cc2ccc(F)cc2)cc1 (stereo not given)

VDR inh	SMILES
0%	O=C(c1noc2c1CCCC2)N1CCN(Cc2ccccc2)CC1
-18%	CC(Sc1nnc2ccccn12)C(=O)Nc1ncc(Cl)cc1Cl (stereo not given)
0%	CC(=O)c1cccc(NC(=O)c2ccc(Br)o2)c1
5%	O=C(O)c1ccccc1OS(=O)(=O)O
-1%	Cc1c(C)n(Cc2ccccc2)c2ncnc(NCCCO)c12
4%	Cc1ccc(NC(=O)CSc2nnc(COc3ccc(Cl)cc3)o2)cc1
-8%	COc1ccccc1NC(=S)NC1CC2CCC1C2 (stereo not given)
50µM*	Cc1cccc(-c2nc3ccccc3c(=O)n2NC(=S)N(C)C)c1
-5%	CCN(CC)S(=O)(=O)c1ccc(S(=O)(=O)N2CCCC2)cc1
-11%	COc1cc(NC(=O)c2cc3c(CO)cnc(C)c3oc2=Nc2cccc(C(N)=O)c2)cc(OC)c1
-15%	O=C(O)CN1C(=O)NC2(CCc3ccccc32)C1=O (stereo not given)
1%	O=C(NCc1ccccc1CN1CCCC1)C1CCN(S(=O)(=O)c2ccc(F)c(F)c2)CC1
-6%	CN(C(=O)n1cnc2ccccc21)c1ccccc1
-12%	CCc1ccc(OCC(=O)Nc2nnc(-c3ccco3)s2)cc1
-7%	CCC/S(C)=N/S(=O)(=O)c1ccc(C)cc1 (stereo not given)
?	COc1cccc(/C=N/NC(=O)C(C)n2nnc3ccccc32)c1 (stereo not given)
3%	COc1cc(OC)c2cc[nH]c2c1
-2%	CCOc1ccc(N(CC(=O)NCCSCc2ccc(C)cc2)S(C)(=O)=O)cc1
-9%	COc1cccc2c(C)cc(N3CCCCCC3)nc12
-5%	CCOC(=O)c1cc(S(=O)(=O)N2CCN(c3ccc(C)cc3C)CC2)[nH]n1

VDR inh	SMILES
10%	CC(=O)OCC1OC(n2ncc(=O)n(Cc3ccccc3)c2=O)C(OC(C)=O)C1OC(C)=O (stereo not given)
4%	CSc1ccc(/C=N/Nc2ccc(Cl)c(C(=O)O)c2)cc1
20%	CCn1c(C)c(C)c2cc(C(=O)NCCCN3CCOCC3)ccc21
-3%	COc1ccc(OCC(=O)N2c3ccccc3CC2C)c([N+](=O)[O-])c1 (stereo not given)
13%	Cc1c(C(=O)NN2CCN(C)CC2)cccc1[N+](=O)[O-]
-7%	CN(Cc1ccccc1)C(=S)NC(=O)c1ccc(-c2ccccc2)cc1
-19%	CCCN(c1ccc(C(C)C)cc1)S(=O)(=O)c1ccc2c(c1)n(C)c(=O)c(=O)n2C
9%	CN(C(=O)c1cc([N+](=O)[O-])ccc1N1CCCC1)C1CCCCC1
?	CN(C)c1ccc(NC(=O)CN2CCN(S(=O)(=O)c3cc(Cl)ccc3Cl)CC2)cc1
-7%	CC(=O)c1c(C)[nH]c(C(=O)NCCc2c[nH]c3ccccc23)c1C
22%	O=C(CCn1nc(-c2ccc(Cl)cc2)ccc1=O)NCc1ccccn1
-7%	O=C(COC(=O)/C=C/c1ccccc1Cl)NC(=O)NCc1ccccc1
10%	COC(=O)c1ccc(NC(=O)CC2C(=O)N(c3cccc(OC)c3)C(=O)N2C(C)C)cc1 (stereo not given)
4%	N#CC(c1ccc(O)cc1)N1CCCCC1 (stereo not given)
7%	CCOCCCNC(=O)Cc1ccc(Br)cc1
22µM*	O=C(NC1CCCCC1)Sc1ccc(Cl)cc1
-3%	O=C(Nc1cc(F)ccc1F)N1CCC(CN2CCOCC2)CC1
6%	Cc1nnc(SCC(=O)N2c3ccccc3Sc3ccccc32)n1N
-1%	CCOC(=O)c1cccc(NC(=O)c2cn(-c3cccc(OC)c3)c(=O)c3ccccc23)c1
-7%	COc1cc(OC)c(OC)cc1CN1CCN(Cc2cccc(F)c2)CC1

Looked up above:
Entry for Cc1nnc(SCC(=O)N2c3ccccc3Sc3ccccc32)n1N under VDR inh: 6%
Entry for Cc1c(C(=O)NN2CCN(C)CC2)cccc1[N+](=O)[O-] under VDR inh: 13%
Entry for COc1ccc(OCC(=O)N2c3ccccc3CC2C)c([N+](=O)[O-])c1 (stereo not given) under VDR inh: -3%
Entry for CC(=O)OCC1OC(n2ncc(=O)n(Cc3ccccc3)c2=O)C(OC(C)=O)C1OC(C)=O (stereo not given) under VDR inh: 10%
Entry for COC(=O)c1ccc(NC(=O)CC2C(=O)N(c3cccc(OC)c3)C(=O)N2C(C)C)cc1 (stereo not given) under VDR inh: 10%
Entry for CSc1ccc(/C=N/Nc2ccc(Cl)c(C(=O)O)c2)cc1 under VDR inh: 4%

More results.
VDR inh	SMILES
4%	CC(=O)c1cccc(NS(=O)(=O)N(C)C)c1
17%	Cc1cc(Nc2ccccc2)n(CCC#N)n1
1%	COc1cc(C(=O)N(Cc2cccnc2)Cc2cc3cc4c(cc3[nH]c2=O)OCCO4)cc(OC)c1OC
1%	Cc1ccc(C2C=C(c3ccccc3OC(F)F)Nc3ncnn32)cc1 (stereo not given)
5%	Cc1ccc(-c2c(CN3CCN(c4cc(Cl)ccc4C)CC3)csc2C)cc1
-4%	CC(C)(C)OC(=O)[C@H](CCCCN)NC(=O)c1nc[nH]c1C(=O)N[C@@H](CCCCN)C(=O)OC(C)(C)C
-8%	CS(=O)(=O)N(CC(=O)N1CCCC1)c1ccccc1F
-13%	CCCn1c(N)c(N(CCOC)C(=O)c2ccc(S(=O)(=O)N3CCOCC3)cc2)c(=O)[nH]c1=O
